Source: PubChem
VDR inh: blocks the human vitamin D receptor | AID 504847 | 400,000 compounds, 0.93% hits | Potency, µM, for inactives: max response, negative = inhibition, most hits filed as inhibitors | VDR-SRC2-3 peptide fluorescence polarization, 2 h; active = well fitted inhibition curve with a large enough effect; inconclusive = small, poorly fitted or top-dose-only effect, or another doubt; inactive = no such curve, though single readings can be large or run the other way; also: series mostly up to about 120 µM
Target sequence (P11473 whole entry, looked up): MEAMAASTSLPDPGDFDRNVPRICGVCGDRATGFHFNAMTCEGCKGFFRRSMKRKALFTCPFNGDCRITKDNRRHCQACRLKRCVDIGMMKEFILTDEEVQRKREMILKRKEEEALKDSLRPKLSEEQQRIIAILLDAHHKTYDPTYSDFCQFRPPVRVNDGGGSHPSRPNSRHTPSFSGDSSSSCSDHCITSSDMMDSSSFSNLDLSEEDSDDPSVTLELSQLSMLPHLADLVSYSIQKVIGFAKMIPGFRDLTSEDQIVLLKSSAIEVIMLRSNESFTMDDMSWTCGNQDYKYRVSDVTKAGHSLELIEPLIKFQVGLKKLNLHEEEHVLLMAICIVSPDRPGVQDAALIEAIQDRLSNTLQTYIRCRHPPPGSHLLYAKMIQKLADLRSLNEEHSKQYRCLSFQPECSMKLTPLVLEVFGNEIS
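VDR–SRC2-3 interaction, FP format. Cmpds 23 nl via pintool, brief spin, 2 h ambient incubation.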
* = called active by the depositor; ? = inconclusive; ! = not active in a repeat; [ ] = another dose, or the depositor's remark. % is scaled to controls: 0 for no effect and ±100 for the full control effect; potency is read from the fitted curve at half-maximal effect.

mol | VDR inh
O=c1c(O)c(-c2ccccc2)oc2cccc(O)c12 | 15%
Cc1ccc(N2NC(=O)/C(=C/c3ccc(-c4ccc(Cl)c(C(=O)O)c4)o3)C2=O)cc1 | ?
Cc1ccc(-c2cc(C(F)F)n3ncc(C(=O)N4CCCCC4c4cccnc4)c3n2)cc1 (stereo not drawn) | -4%
CCc1nc2ccccc2n1CCCCOc1ccccc1C | 7%
COc1ccccc1C(=O)NC(=O)COC(=O)CN1C(=O)NC(C)(C)C1=O | -1%
CCOc1ccc(N2C(=O)CC(N)C2=O)cc1 (stereo not drawn) | -3%
Cc1cc(C)cc(N(C(=O)c2ccccn2)C(C(=O)NC2CCCCC2)c2cccs2)c1 (stereo not drawn) | -7%
CC1CC1C(=O)OCC(=O)Nc1ccccc1Oc1ccccc1 (stereo not drawn) | -25%
O=C(NNc1ccccc1)c1sc2ccccc2c1Cl | ?
Oc1ccc(C[C@@H]2CNCCN2CCC23CC4CC(CC(C4)C2)C3)cc1 | -4%

(cont.)
mol | VDR inh
CCNNC(=O)C(O)(c1cccc(C)c1)c1cccc(C)c1 | -16%
CC(C)CC(=O)NC(=S)Nc1nc(-c2ccccc2)cs1 | -6%
COc1cccc(/C=C/C(=O)OCC(=O)N2CCCc3ccccc32)c1 | -6%
CN(C(=O)C1CCC(=O)N(Cc2ccccc2F)C1)C1CCOCC1 (stereo not drawn) | -2%
C[C@@]12CCC=C[C@H]1[C@H](c1ccccc1Br)N(Cc1ccccc1)C2=O | 50µM*!
O=C(O)/C(=C/c1ccco1)NC(=O)c1ccc(Br)o1 | 0%
Cc1ccccc1CNc1nc(N)n(-c2ccccc2)n1 | -6%
COCCN1C(=O)C(=O)/C(=C(/O)c2ccc(S(=O)(=O)N3CCOCC3)cc2)C1c1ccc(OC)c(OC)c1 (stereo not drawn) | 19%
Cc1cc(C)n(S(=O)(=O)c2cc(C)c(C)cc2C)n1 | 8%
O=c1c2oc3ccccc3c2n(Cc2ccccc2F)c(=O)n1Cc1ccccc1 | -1%

(next part)
mol | VDR inh
COCCn1c(C)cc(O)c(C(c2ccc(C)cc2)N2CCCCC2)c1=O (stereo not drawn) | 0%
CN1CCN(c2oc(-c3ccc(OCc4ccc(Cl)cc4)cc3)nc2C#N)CC1 | 3%
CCOC(=O)N1CCN(C(=O)c2cc3cc(Br)ccc3oc2=O)CC1 | 15%
C/C(=N\N=C1/NC(=O)C(C)S1)c1ccc([N+](=O)[O-])cc1 (stereo not drawn) | -7%
Cc1ccc(S(=O)(=O)N2CCCC2C(=O)NC2CCCCC2)cc1 (stereo not drawn) | 11%
CCOc1cc(/C=N\NC(=O)c2ccc(NC(=O)C(C)(C)C)cc2)ccc1OC(=O)c1ccc(C)cc1 | 13%
CCOC(=O)CC(NS(=O)(=O)c1ccc(OC)c(C)c1)c1cccc([N+](=O)[O-])c1 (stereo not drawn) | -1%
O=C(Nc1ccc(Cl)cc1)c1ccc2oc(=O)n(Cc3ccccc3)c2c1 | 16%
O=C(NCc1ccccc1)C(=O)Nc1ccc2nc3n(c(=O)c2c1)CCCCC3 | 10%
CCOC(=O)c1nn(-c2ccccc2Cl)c(=O)cc1OCC(=O)Nc1cccc(OC)c1 | 1%

(continued)
mol | VDR inh
CCN(CC)C1CCN(C(=O)c2cc(COc3ccc(F)cc3Cl)on2)C1 (stereo not drawn) | -10%
CC(C)(C)c1ccc(C(=O)NCc2nnc(SCC(=O)NCC3CCCO3)o2)cc1 (stereo not drawn) | -11%
Cc1cccc(NC(=O)c2ccccc2NC(=O)c2ccco2)c1 | -5%
Cc1cccc(-n2cnc3cc(C(=O)N4CCc5ccccc54)ccc32)c1 | -14%
CCOc1ccc(NC(=O)CSc2nc3ccccc3c(=O)n2CCCC(=O)NCC2CCCO2)cc1 (stereo not drawn) | -12%
O=C(Cc1cccs1)N1CCN=C1SCc1ccc(F)cc1 | -7%
CCOc1ccc(N=Nc2c(=O)[nH]n3c(=O)c4c([nH]c23)CCCC4)cc1 | -6%
Cc1ccc(-n2c(C)nnc2SCC(=O)N2CCc3ccccc3C2)cc1 | -24%
CCS(=O)(=O)N1CCc2cc(C(=O)N3CCN(c4ccccc4OC)CC3)ccc21 | 17%
COc1ccc(-c2csc(N)n2)cc1 | -13%

New compounds follow
mol | VDR inh
COc1ccc(Cl)cc1NC(=O)C1CCN(S(=O)(=O)c2ccc(F)cc2)CC1 | ?
COc1ccc(CNC(=O)C(C)OC(=O)c2cccc(N(C)C)c2)cc1 (stereo not drawn) | 9%
O=C(Nc1ncnc2c1ncn2[C@@H]1O[C@@H]2COP(=O)(O)O[C@H]2[C@H]1O)c1ccccc1 | 7%
Cc1ccc(-c2nc(CNC(=O)c3ccco3)cs2)cc1 | -12%
COc1ccc(C(=O)Nc2nnc(C(C)C)s2)cc1OC | -11%
O=C1CN(C(=O)CN2C(=O)NC(c3ccccc3)(c3ccccc3)C2=O)c2ccccc2N1 | 7%
Cc1ccc(CN2CCNC(=O)C2CC(=O)NCCCn2ncc3ccccc32)o1 (stereo not drawn) | -15%
CCOc1ccc(C2CC(c3c(O)c4ccccc4oc3=O)=NN2c2ccccc2)cc1OC (stereo not drawn) | 11%
COc1ccc(NC(=O)CN(C)C(=O)CCSc2ccc(C)cc2)cc1 | -10%
COc1cc(CNCc2cccs2)ccc1OCC(N)=O | -5%

Continued:
mol | VDR inh
CCCCn1cc(S(=O)(=O)c2ccccc2)c(=O)c2cc(F)c(N3CCC(C)CC3)cc21 | 3%
Cc1ccc(C(=O)N/N=C/c2ccc(-c3cccc(Cl)c3)o2)cn1 | 2%
COc1ccccc1CNC(=O)c1cc2ccc3ccc(C)[nH]c3c2n1 | 8%
COC(=O)CCC(=O)Nc1cccc2c(NC(=O)CCC(=O)OC)cccc12 | 9%
O=C(NCc1ccccc1)c1ccc(CSc2nc3cccnc3n2Cc2ccccc2)cc1 | 6%
O=C1C2C3C=CC(C3)C2C(=O)N1c1cccc(-c2nc3ccccc3o2)c1 (stereo not drawn) | 14%
CCOC(=O)c1c(NC(=O)COc2ccc3ccc(=O)oc3c2)sc(C(=O)N(C)C)c1C | -6%
O=C(COC(=O)c1ccc(Cl)cc1O)NC(=O)C1CCCCC1 | -3%
O=C(NCCCn1ccnc1)c1cc(-c2ccc(Cl)cc2)nc2ccccc12 | 0%
O=C(CCNS(=O)(=O)c1ccc(OC(F)(F)F)cc1)N1CCN(S(=O)(=O)c2cccc(F)c2)CC1 | 9%

The list continues.
mol | VDR inh
CCOc1ccc(-c2nc(C#N)c(NCc3ccco3)o2)cc1 | -9%
O=C(NCCc1ccccc1)C1CCN(C(=O)c2ccc(F)cc2)CC1 | -25%
CC(C)(C)NC(=O)C(c1ccc(F)cc1)N(Cc1ccco1)C(=O)CCC(=O)Nc1ccccn1 (stereo not drawn) | -5%
O=C(Nc1ccc(Cl)c(Cl)c1)C1CCCCC1 | -7%
CCCCOc1ccc(C(=O)NCCOc2cccc(OC)c2)cc1 | ?
CC(=O)NCCc1ccc(C(=O)COC(=O)c2cccn2C)cc1 | -20%
Cc1cc(C)cc(NC(=O)CNC(c2ccccc2)c2ccccc2)c1 | 31%[activator]
NC(=O)c1cnn(C2CCS(=O)(=O)C2)c1 (stereo not drawn) | 0%
COc1ccc(C(=O)Nc2ccc(NC(=O)c3cccs3)c(OC)c2)cc1Cl | -13%
Cc1ccc(C(=O)O)cc1NC(=S)NC(=O)c1ccc(-c2ccccc2)cc1 | -7%

The listing continues:
mol | VDR inh
O=C(CSc1nnc(-c2cccs2)n1-c1ccccc1)N1CCCc2ccccc21 | 4%
CCn1c(=O)cc(SCC(=O)Nc2cc(OC)c(OC)c(OC)c2)c2ccccc21 | 10%
Nc1n[nH]c(C2CCCCC2)n1 | -21%
CCc1c(C)c(C#N)c2nc3ccccc3n2c1NCc1ccco1 | -4%
CC1=C(C#N)C(NC(=O)C2CCCCC2)(C(F)(F)F)C(=O)N1 (stereo not drawn) | 11%
COc1ccc(-c2nc(N3CCN(C)CC3)sc2-c2ccc(OC)cc2)cc1 | -1%
O=C(CCN1C(=O)S/C(=C\c2cccs2)C1=O)NC1=NCCS1 | -20%
Cc1cccc(CCNC(=O)C2CCCN(S(=O)(=O)c3cccc4nsnc34)C2)c1 (stereo not drawn) | 9%
CCOC(=O)C1=C(C)NC(C)=C(C(=O)OCC)C1C(=O)OCC(=O)N1CC(C)OC(C)C1 (stereo not drawn) | 26%
CCN1CCN(CCCNC(=O)c2csc3c2CCCCC3)CC1 | 25%

Continued.
mol | VDR inh
CCN(CC(=O)NCc1cccs1)C(=O)c1ccc(S(=O)(=O)Nc2cccc(C)c2C)cc1 | -21%
CCNC(=O)C(C)Sc1ccc(Cl)cc1 (stereo not drawn) | -3%
COc1cccc(NC(=O)CN(C)C(=O)c2ccc(-c3ccccc3Cl)o2)c1 | 16%
Cc1ccc(NC(=O)CSc2nc3ccccc3nc2N2CCCC2)cc1 | 1%
COc1ccc(NC(=O)c2cccc(N3C(=O)C4C5C=CC(C5)C4C3=O)c2)c(OC)c1 (stereo not drawn) | -4%
N=C1/C(=C\c2ccc(OC(=O)c3ccccc3)cc2)C(=O)N=C2SC(N3CCOCC3)=NN12 | -5%
CC(C)c1onc(C(=O)NCc2cccs2)c1[N+](=O)[O-] | -8%
O=c1[nH]ncn1-c1ccc(Br)cc1 | -8%
COC(=O)CCN(C(=O)c1cc(OC)c(OC)c(OC)c1)c1ccccn1 | 4%
CC(=O)NC1=NN(C(C)=O)C(C)(CS(=O)(=O)c2ccc3ccccc3c2)S1 (stereo not drawn) | -5%

Additional entries follow:
mol | VDR inh
Cc1ccc2sc(-c3ccc(N)cc3)nc2c1 | 16%
CC(=O)c1ccc(OCc2cc(C(=O)N(C)Cc3ncc(C)[nH]3)no2)cc1 | -11%
CSc1cccc(NS(=O)(=O)c2ccc(-c3coc(C)n3)cc2)c1 | 4%
C=CCNC(=S)Nc1cccc(N)c1 | -2%
COc1ccc(NC(C)=O)cc1S(=O)(=O)N1CCn2cccc2C1C (stereo not drawn) | -4%
COC(=O)Cc1[nH]nc2c1C(C1C=CCCC1)C(C#N)=C(N)O2 (stereo not drawn) | -25%
CCCC(C(=O)O)n1c(O)c(C=C2N=c3ccccc3=N2)sc1=S (stereo not drawn) | -21%
Cc1ccc(S(N)(=O)=O)cc1NC(=O)/C=C/c1cccs1 | 1%
c1ccc(Nc2ncncc2-c2ccc3c(c2)OCO3)cc1 | -1%
CCOC(=O)c1cc(S(=O)(=O)NCCc2ccccc2)cn1C | 9%

Next section
mol | VDR inh
CCCCn1c(N)c(N(CCOC)C(=O)c2ccc3c(c2)OCCO3)c(=O)[nH]c1=O | 5%
COc1ccc(CCNC(=O)CCc2c(C)nc3c(c(C)nn3-c3ccc(C)cc3)c2C)c(OC)c1 | -5%
Cc1ccc2sc(N(CCCN(C)C)C(=O)c3ccc(S(=O)(=O)N4CCc5ccccc5C4)cc3)nc2c1C | -8%
Cc1ccc2c(=O)cc(C(=O)Nc3ccc(S(=O)(=O)N4CCC(C)CC4)cc3)oc2c1C | 11%
Cn1ccsc1=NC(=O)c1ccc(S(=O)(=O)C(F)F)cc1 | 5%
Nc1cc(=O)[nH]n1C1CCCC1 | -1%
O=C(CC(=O)c1ccccc1)Nc1cc(C(F)(F)F)ccc1Cl | -25%
CCC1=Nc2cc(C(=O)N3CCCCC3)ccc2Sc2ccc(C)cc21 | -7%
Cc1nn(-c2ccccc2)c2c1C(=O)N(Cc1ccccc1)C(=O)C(C)(C)C2 | -7%
CC(C)CC(C(=O)OCC(=O)c1c(N)n(C)c(=O)n(C)c1=O)N1C(=O)c2ccccc2C1=O (stereo not drawn) | -22%

4 compounds from above, sorted by the number in VDR inh, highest first:
mol | VDR inh
Cn1ccsc1=NC(=O)c1ccc(S(=O)(=O)C(F)F)cc1 | 5%
Nc1cc(=O)[nH]n1C1CCCC1 | -1%
Cc1nn(-c2ccccc2)c2c1C(=O)N(Cc1ccccc1)C(=O)C(C)(C)C2 | -7%
CC(C)CC(C(=O)OCC(=O)c1c(N)n(C)c(=O)n(C)c1=O)N1C(=O)c2ccccc2C1=O (stereo not drawn) | -22%

Compounds listed so far that contain a CF3 group:
mol | VDR inh
O=C(CCNS(=O)(=O)c1ccc(OC(F)(F)F)cc1)N1CCN(S(=O)(=O)c2cccc(F)c2)CC1 | 9%
CC1=C(C#N)C(NC(=O)C2CCCCC2)(C(F)(F)F)C(=O)N1 (stereo not drawn) | 11%
O=C(CC(=O)c1ccccc1)Nc1cc(C(F)(F)F)ccc1Cl | -25%

Continued:
mol | VDR inh
O=C(CCNC(=O)c1ccccc1Cl)Nc1nc(-c2ccccc2Cl)cs1 | -6%
Cc1c(C(=O)NCc2ccc(Cl)cc2)oc2ccc3c(c12)C(=O)CC(C)(C)O3 | 20%
O=[N+]([O-])c1cc(/C=N/n2c(-c3cccnc3)n[nH]c2=S)ccc1Cl | -37%
Cc1ccc(-c2nc(CS(=O)CC(=O)NCc3ccc4c(c3)OCO4)c(C)o2)cc1 (stereo not drawn) | -18%
Cc1csc(SCc2nc3scc(-c4ccccc4)c3c(=O)[nH]2)n1 | -1%
O=C(Cn1c(=O)n(Cc2ccc3c(c2)OCO3)c(=O)c2ccccc21)Nc1cccc(Cl)c1 | 14%
CCc1ccc(NCc2cc3cc4c(cc3n(CC(=O)Nc3ccc(F)cc3)c2=O)OCCO4)cc1 | 1%
COc1ccccc1OCCn1ccnc1 | -5%
O=C(CNC(=O)c1ccc(Cl)cc1Cl)OCN1C(=O)c2ccccc2C1=O | -1%
CCCCn1cnc2c(c(-c3ccccc3)c(-c3ccccc3)n2Cc2ccco2)c1=N | -9%
C[C@H](CO)N1C[C@H](C)[C@@H](CN(C)S(C)(=O)=O)Oc2ccc(NC(=O)Nc3ccccc3)cc2C1=O | 13%
CCN(CC)c1nc2c(c(=O)[nH]c(=O)n2C)n1Cc1ccccc1 | 0%
Cc1ccc(NC(=O)CC2OC(=O)c3ccccc32)cc1S(=O)(=O)N1CCOCC1 (stereo not drawn) | -12%

Not all compounds are listed, so the mix of outcomes need not match the whole.
